# Source: PubChem BioAssay
# UCH37 DUB inh = inhibitors of human UCH37 deubiquitinase, primary screen, biochemical, Ub-AMC cleavage, fluorescence; purified proteasome/UCH37; inhibition, % (test concentration not listed); 330,000 tested, 0.33% active;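 active = mean of two replicates above 20%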;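 note: 0% = compound-free wells with enzyme and 100% = wells lacking proteasome; stock transfer was 100 nL into about 20 µL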
#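 System: Proteasome-associated human UCH37 deubiquitinase; Input: 0.15 nM proteasome in added enzyme buffer; Also added: Ub-AMC substrate from 1 µM stock; Incubation: 30 min compound-proteasome preincubation then 25 min substrate reaction, room temperature; Detection: fluorescence, ex 355 nm, em 460 nm; Read-out: % inhibition of Ub-AMC cleavage fluorescence; Benchmarks: no-proteasome and no-compound wells.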
# HNF4A DNA FP = change in binding of human HNF4A to DNA, primary screen, biochemical, fluorescence polarization, FITC-DNA. 1 h. Hepatocyte nuclear factor 4-alpha (Homo sapiens), P41235. activity change, % at 10 µM. 360,000 tested, 0.3% active. AID 1224865, 2016; in the data active = activity change above about 30%, passing the limit was not always enough;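 note: controls were the assay level and a saturating level of protein; the project sought stronger binding though the title names inhibitors; some compounds called inactive have numbers as strong as hits; positive values seem to mean higher polarization but the record does not say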
# Target sequence (P41235 whole entry, looked up): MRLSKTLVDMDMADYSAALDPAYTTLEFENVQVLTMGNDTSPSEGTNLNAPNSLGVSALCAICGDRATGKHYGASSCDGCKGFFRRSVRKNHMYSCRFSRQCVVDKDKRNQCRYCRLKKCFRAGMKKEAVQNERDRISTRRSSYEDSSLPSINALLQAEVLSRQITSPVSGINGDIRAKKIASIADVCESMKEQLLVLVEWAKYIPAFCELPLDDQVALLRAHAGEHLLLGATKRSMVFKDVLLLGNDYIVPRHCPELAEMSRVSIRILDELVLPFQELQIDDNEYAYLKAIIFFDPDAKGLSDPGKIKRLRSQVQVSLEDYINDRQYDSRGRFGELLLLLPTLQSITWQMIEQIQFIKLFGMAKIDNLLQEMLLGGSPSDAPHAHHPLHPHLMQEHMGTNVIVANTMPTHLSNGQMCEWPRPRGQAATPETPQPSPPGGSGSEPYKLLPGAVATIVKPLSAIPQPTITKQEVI
# FGF22 binding = binders of human FGF22 protein, primary screen, FGF22 synaptogenesis inhibitor project, biophysical, thermal shift, single point; Fibroblast growth factor 22 (Homo sapiens), Q9HCT0; recombinant FGF22 thermal shift, SYPRO orange fluorescence; percent of sucrose octasulfate shift, DMSO zero; calls only at 9.99 µM; 340,000 tested, 1.5% active;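 active = melting point raised past a set limit in the mean and every replicate; three in four hits are not shown here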
# Target sequence (Q9HCT0 whole entry, looked up): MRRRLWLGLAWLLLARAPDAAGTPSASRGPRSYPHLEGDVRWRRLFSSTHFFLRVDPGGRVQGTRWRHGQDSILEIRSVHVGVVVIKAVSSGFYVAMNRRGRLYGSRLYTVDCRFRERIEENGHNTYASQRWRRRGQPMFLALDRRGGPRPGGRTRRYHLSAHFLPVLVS
# rRNA inh HTS = reduced GFP signal of wild-type E. coli, primary screen, bacterial rRNA inhibitor project, GFP/RFP fluorescence, OD600, single point; E. coli WT GFP vs humanized-ribosome RFP mutants, 24 h; hits give low values; DMSO median 0, no signal -100; GFP signal change (wild-type ribosome), % (concentration not given with the values); 350,000 tested, 1.6% active;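 active = significant combined selectivity score with lowered wild-type GFP, culture density cut under 30%, mutant RFP and density less affected; inactive = any of these conditions unmet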; note: one replicate is shown; some compounds called inactive have numbers as strong as hits
# Ecoli growth = E. coli growth inhibition, primary screen, OD600; Escherichia coli growth, 23 h; hits give low values; OD600 absorbance (test concentration not listed); 330,000 tested, 0.21% active;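 active = OD600 absorbance below the run mean of sample wells minus 3.6 SD, in any replicate, cut at about 0.56 in these data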;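 note: stock transfer was 300 nL into about 60 µL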
# ALR inh = inhibitors of human ALR sulfhydryl oxidase, primary screen, biochemical, H2O2 detection, HRP-luminol luminescence, single point; inhibition, % (concentration not given with the values); AID 485317, 2010; purified ALR, DTT oxidation; FAD-linked sulfhydryl oxidase ALR (Homo sapiens), P55789; 290,000 tested, 3.8% active;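 active = mean and each replicate at 75% or more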;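 note: stock transfer was 7.5 nL into about 7.5 µL; 0% = neutral wells and 100% = wells with inactivated enzyme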
# Target sequence (P55789 whole entry, looked up): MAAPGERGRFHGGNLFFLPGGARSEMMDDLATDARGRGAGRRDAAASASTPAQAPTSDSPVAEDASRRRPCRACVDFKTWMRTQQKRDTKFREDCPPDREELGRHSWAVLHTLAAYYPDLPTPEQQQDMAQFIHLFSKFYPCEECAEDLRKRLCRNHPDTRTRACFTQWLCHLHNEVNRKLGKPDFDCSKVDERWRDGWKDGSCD
# Beta2AR agonist = beta2AR agonists driving receptor internalization, primary screen, cell-based, FAP fluorogen, flow cytometry. Am2.2-beta2AR cells; reference of the scale not given here. 340,000 tested, 0.43% active. Beta-2 adrenergic receptor (Homo sapiens), P07550. AID 504454, 2011. response, % (no concentration beside the values);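 active = response above a set limit, near 3 SD of response in nonfluorescent compounds, cut at about 42% in these data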;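 note: stock transfer was 100 nL into about 11 µL; a reference agonist was the positive control; negative values mostly stem from fluorescent compounds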
# rRNA inh HTS OD600 = recorded beside rRNA inh HTS, whose call it bears; OD600 change, %; measured here: OD600 growth;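 optical density of the mix in the first replicate; 0 = DMSO median and -100 = no signal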
# rRNA inh HTS RFP = further read-out of rRNA inh HTS, marked with its call; RFP signal change, %; measured here: RFP humanized mutant strains;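 first replicate; 0 = DMSO median and -100 = no signal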
# Active calls of the source: *; i = inactive; . = not tested or not shown; & = joins results of further samples. The list is partial; rates above refer to the full screens.
SMILES,UCH37 DUB inh,HNF4A DNA FP,FGF22 binding,rRNA inh HTS,rRNA inh HTS OD600,rRNA inh HTS RFP,Ecoli growth,ALR inh,Beta2AR agonist
CO[C@@H]1CN(C)C(=O)c2cc(NC(=O)NC3CCCCC3)ccc2OC[C@@H](C)N(CC2CCOCC2)C[C@@H]1C,.,4.8,i,1&10,6&-8,-0.6&1.0,.,.,.
O=C(CN1C(=O)COc2ccc(Cl)cc21)Nc1ccc2c(c1)OCCO2,2.1,-5.3,i,15,3,-0.2,0.66,0,18
O=C(NCCCN1CCCC1)c1ccc2c(c1)N(Cc1ccc(F)cc1)C(=O)c1ccccc1S2=O (stereo not drawn),0.3,3.9,i,1,1,-0.7,0.65,-12,3
Cc1nc([N+](=O)[O-])cn1CC(=O)c1ccc(F)cc1,0.5,77*,.,.,.,.,0.7,-2,-2
O=C(NCc1nnc(SCC(=O)N2CCc3ccccc32)o1)c1cccs1,4.5,1.5,i,5,-2,0.2,0.71,-12,-20
Cc1cnc(C(=O)OCC(=O)c2cccc3ccccc23)cn1,1.9,0.8,i,-1,-4,1.4,0.69,.,-4
CCOC(=O)C1C2C=CC3(CN(c4ccccc4CC)C(=O)C13)O2 (stereo not drawn),2.3,0.2,.,.,.,.,0.76,9,.
COc1ccc(C(=O)N2CCCC2)cc1,2.4,-2.6,.,.,.,.,0.65,1,-1
CC1(C)Cc2cccc(OCC(=O)NCCc3ccccc3)c2O1,2.1,-2.7,i,-11,-12,0.3,0.6,4,-12
COc1cc(-c2nc3ccc(C)cn3c2NCc2ccccc2)ccc1-c1cccc(Cl)c1,-346,2.9,i,-16,-24,14,0.75,1,1
Cn1cc(Cl)c(C(=O)Nc2nc3ccc([N+](=O)[O-])cc3s2)n1,.,22,i,3,8,-2.8,.,-4,4
COc1ccc(CCNCCC(=O)Nc2c(C)cc(C)cc2C)cc1OC,-0.6,-0.1,.,.,.,.,0.7,-3,-1
Cc1cccc(C)c1NC(=O)CN(c1c(C)cccc1C)S(C)(=O)=O,.,1.0,.,7,21,-0.5,.,.,.
Cc1c(C)n(C)c2ccc(C(=O)Nc3cccc4ccccc34)cc12,-7.5,-0.4,.,.,.,.,0.78,-4,6
O=C(NCCCc1ccc(F)cc1)C1CCC(=O)N(CCN2CCOCC2)C1 (stereo not drawn),3.2,1.1,i,24,6,-1.7,0.7,1,-1
CCCCn1nnc(NC(=O)c2ccc(-c3ccccc3[N+](=O)[O-])o2)n1,2.6,1.1,i,-19,-23,-4.0,0.62,-17,-2
O=C(COC(=O)c1ccncc1)NCCCc1ccccc1,-0.6,4.4,i,18,5,-0.7,0.7,-10,-189
CCCCS(=O)(=O)N1CN(S(=O)(=O)CCCC)C2NC(=O)NC21 (stereo not drawn),2.3,-7.7,.,.,.,.,0.68,-2,-5
O=C(COC(=O)C1CC(=O)N(Cc2ccccc2)C1)c1ccc(F)cc1 (stereo not drawn),2.1,-2.0,i,9,12,4.1,0.68,-2,7
Cc1ccccc1C(=O)NNc1ncnc2c1cnn2C,1.4,-2.3,i,6,7,-0.4,0.71,43,-5
Cc1c(C(=O)O)cccc1-n1c(C)cc(/C=N/NC(=O)c2cc3ccccc3o2)c1C,.,-1.5,.,.,.,.,.,11,-5
Cn1nnnc1SCC(=O)Nc1ccccc1N1CCCCC1,-3.3,-0.4,.,.,.,.,0.72,24,4
CCCSc1nc(C)c(CC(=O)O)c(=O)[nH]1,-1.7,0.1,.,.,.,.,0.77,-9,1
Cc1nc(SCC(=O)N2CCC(C(N)=O)CC2)n[nH]1,0.6,1.4,.,.,.,.,0.71,-8,-1
Cc1ccc([C@@H]2C[C@H]3[C@@H](CN2S(=O)(=O)c2ccc(C)cc2)C(=O)C[C@@H](c2ccccc2F)N3S(=O)(=O)c2ccc(C)cc2)cc1,.,-3.2,i,6,17,-2.3,.,.,.

# Additional compounds
SMILES,UCH37 DUB inh,HNF4A DNA FP,FGF22 binding,rRNA inh HTS,rRNA inh HTS OD600,rRNA inh HTS RFP,Ecoli growth,ALR inh,Beta2AR agonist
S=C(Nc1ccccc1)Nc1cc(Cl)ccc1Oc1ccccc1,1.4,-5.3,.,.,.,.,0.72,-1,-2
CC(=NNC(=O)c1cc(C)oc1C)c1ccc(Br)s1,-4.6,-0.7,i,3,10,-1.0,0.7,0,-6
Clc1cccc(CN2CCN(c3nc4nonc4nc3NC3CC3)CC2)c1,3.5,-2.2,i,-15,-16,-6.7,0.74,-2,2
O=C(CCNS(=O)(=O)c1ccc(Br)s1)NC1CCCC1,2.6,0.9,.,-1,-5,0.2,0.67,2,9
CCc1nn2c(=O)cc(COC(=O)c3cc(Cl)c(OC)c(OC)c3)nc2s1,1.3,-3.1,i,.,.,.,0.69,-3,7
O=C1CC(SC(=Nc2ccccc2)Nc2ccccc2)C(=O)N1c1ccc(Cl)c(Cl)c1 (stereo not drawn),.,-2.2,.,.,.,.,.,2,-2
Cc1ccc(NC(=O)CCc2nc3sc4c(c3c(=O)[nH]2)CCCC4)c(Br)c1,-3.5,-0.3,.,.,.,.,0.68,1,-5
O=C(CC1C(=O)NCCN1Cc1cccc(F)c1)NC1CCCCC1 (stereo not drawn),-5.8,-2.2,i,.,.,.,0.72,-1,-3
COC(=O)CN(c1ccccc1OC)S(=O)(=O)c1ccccc1,-0.7,1.6,.,.,.,.,0.67,1,10
CC(C)CN1C(=O)NC(NC(=O)c2cccnc2)(C(F)(F)F)C1=O (stereo not drawn),0.1,2.9,i,5,-16,-4.1,0.67,-3,3
NC(=O)c1oc2ccccc2c1NC(=O)c1ccc(F)cc1,-27,1.1,i,4,6,1.9,0.71,-5,-13
COc1cc(Cl)c(C)cc1NC(=O)CN1CCCCCC1,3.7,-1.9,i,7,16,-4.6,0.7,-3,5
Cn1c(=O)[nH]c(=O)c2c1nc(SCCO)n2Cc1ccccc1Cl,4.3,-0.6,i,3,2,0.1,0.61,-5,4
COc1ccccc1NC(=O)Cc1nnc(SCC(=O)NC2=NCCS2)n1C,2.9,-0.5,i,.,.,.,0.66,-2,-10
C[C@H](CO)N1C[C@H](C)[C@@H](CN(C)C(=O)Nc2ccc(C(F)(F)F)cc2)Oc2c(NS(=O)(=O)c3ccc(F)cc3)cccc2C1=O,12,-6.0,i,-5&-1,-9&0,-2.6&-2.6,0.7,.,4
Cc1cc(NC(=O)C(C)C)ncc1NC(=O)c1ccco1,.,-3.8,i,9,15,-0.9,.,-4,-2
Fc1cccc(Cn2ccc(-c3ccc4c(c3)OCO4)n2)c1,1.3,-0.3,.,.,.,.,0.62,11,3
Cc1onc(-c2ccccc2Cl)c1C(=O)O/N=C(\N)c1cccc([N+](=O)[O-])c1,.,0.5,i,2,17,2.2,.,.,.
O=C(O)C[C@]1(C(=O)Nc2ccc(F)cc2)CC(/C=C/c2ccccc2)=NO1,1.7,0.4,i,0,1,-3.4,0.68,-19,-1
Cc1cc(C(=O)NNC(=O)COc2c(C)cc(Br)cc2C)n[nH]1,4.5,-1.2,i,-7,-5,-0.7,0.67,4,-2
CCCCOC(=O)Cn1c(=O)n(CC(=O)OCCCC)c2ccccc21,3.3,0.6,.,.,.,.,0.72,-4,23
COc1cc(N(C)C)c([N+](=O)[O-])cc1C(=O)N1CCN(Cc2ccccc2)CC1,7.6,5.5,i,2,9,1.5,0.69,-5,5
CCN(CC(=O)Nc1ccc2c(c1)OCCO2)C(=O)/C=C/c1ccc(OC)c(OC)c1,-18,-2.7,.,4,4,-0.3,0.68,-15,-7
Cc1csc(NC(=O)NC2(C(F)(F)F)Oc3ccccc3O2)n1,6.7,4.8,.,.,.,.,0.67,38,-2
C/C(=C\C(=O)c1ccccc1)NCc1ccc(F)cc1,6.0,0.7,.,.,.,.,0.71,1,8

# Already shown: 3 of the compounds above.
SMILES,UCH37 DUB inh,HNF4A DNA FP,FGF22 binding,rRNA inh HTS,rRNA inh HTS OD600,rRNA inh HTS RFP,Ecoli growth,ALR inh,Beta2AR agonist
CCN(CC(=O)Nc1ccc2c(c1)OCCO2)C(=O)/C=C/c1ccc(OC)c(OC)c1,-18,-2.7,.,4,4,-0.3,0.68,-15,-7
Cc1csc(NC(=O)NC2(C(F)(F)F)Oc3ccccc3O2)n1,6.7,4.8,.,.,.,.,0.67,38,-2
C/C(=C\C(=O)c1ccccc1)NCc1ccc(F)cc1,6.0,0.7,.,.,.,.,0.71,1,8

# (list continues)
SMILES,UCH37 DUB inh,HNF4A DNA FP,FGF22 binding,rRNA inh HTS,rRNA inh HTS OD600,rRNA inh HTS RFP,Ecoli growth,ALR inh,Beta2AR agonist
COc1ccc2nc3n(c(=O)c2c1)-c1cc2ccccc2cc1C(=O)NC3Cc1ccc(O)cc1 (stereo not drawn),.,-4.4,i,-2,1,5.7,.,.,.
Cc1ccc(-c2nn[nH]n2)cc1Cl,7.7,0.6,i,-29,-32,-7.3,0.67,-5,-4
C/C(=N/OC(=O)c1c(-c2c(F)cccc2Cl)noc1C)c1cnccn1,.,1.0,i,1,4,0.6,.,.,-8
CCC(C(=O)NCCCN1CCN(C)CC1)n1nc(C)c2sc3ccccc3c2c1=O (stereo not drawn),0.4,0.9,i,3,6,4.1,0.68,-6,-3
COc1ccc(-c2cn[nH]c2-c2ccc(O)cc2O)cc1,0.1,-0.5,i,-3,-13,-2.9,0.67,61,10
COc1ccc(-c2nc3ccccc3n2OC(C)C(=O)O)cc1 (stereo not drawn),2.0,-2.5,.,15,0,1.2,0.68,-4,-2
CCc1ccc(-c2nnn(Cc3nn[nH]n3)n2)cc1,5.0,5.4,.,.,.,.,0.67,17,-3
CC1CCc2nn(CC(=O)N3CCc4ccccc43)cc2C1 (stereo not drawn),5.2,-0.5,i,-3,-2,-1.6,0.76,-13,-17
CCOC(=O)Cn1c(C)cc(=O)c2cccc(C)c21,0.3,-4.3,.,-1,0,1.2,0.74,1,2
CC(C)=CCN1CCN(Cc2coc3ccc(C)cc3c2=O)CC1CCO (stereo not drawn),2.4,51*,i,4,-6,0.5,0.7,2,-6
Cc1cnc(C)c(N2CCC(C(=O)NCc3ccco3)CC2)n1,7.7,0.8,.,.,.,.,0.77,-2,4
O=C1c2ccccc2CC1(Cc1ccccc1)Cc1ccccc1,2.8,-2.1,.,.,.,.,0.72,-15,11
O=C(COc1ccc(/C=N/NS(=O)(=O)c2ccccc2)cc1)Nc1cccc(Cl)c1,.,0.6,.,.,.,.,.,-26,9
Cc1ccc(S(=O)(=O)N(CCC(=O)NCc2ccccc2F)c2ccccc2)cc1,2.9,1.0,i,.,.,.,0.68,-16,0
CCC1Nc2ncnc(N3CCN(c4ccccn4)CC3)c2N(Cc2ccc(Cl)cc2)C1=O (stereo not drawn),1.5,0.1,i,-21,-28,-12,0.67,16,2
NC(=O)c1ccc[n+](CC(=O)c2ccc(Br)cc2)c1,2.5,0.2,.,4,5,1.5,0.67,-3,-5
Cc1ccc(C)c(SCC(=O)N(C)C2CCS(=O)(=O)C2)c1 (stereo not drawn),2.7,5.2,i,4,11,0.3,0.67,-3,3
COc1cccc(C(C(=O)NCc2ccccc2)N(C(=O)c2csnn2)C2CC2)c1 (stereo not drawn),2.9,1.8,i,2,4,-1.9,0.67,-1,0
CCc1ccc(-c2csc3nc[nH]c(=O)c23)cc1,2.5,-0.6,i,-14,-16,-1.6,0.59,6,5
